Compound activity as filed in PubChem.
RE007 growth inh = less growth of the S. pombe RE007 Vpr strain; S. pombe RE007 Vpr strain, BacTiter-Glo ATP luminescence, 24 h; control for the full effect not named in the record; Potency, µM (highest dose often 92.2 µM), without a hit: at the top dose activity change, negative = less growth; 0.21% of 360,000 active; active = well fitted falling curve with a large enough effect; inconclusive = small, poorly fitted or top-dose-only effect; inactive = no such curve, though single readings can be large or run the other way;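 further: on the % scale 0 is the no-effect control and ±100 the full control effect; nearly all actives have a fitted effect of over 50% in size; the assay follows cell death caused by Vpr and the record does not say whether a fall means rescue or toxicity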
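Fission yeast strain RE007, carrying one chromosomally integrated HIV-1 vpr copy, was seeded at OD 0.01 in PMG+AL medium with 23 nL pinned compound. After 24 h at 30 °C and 99% humidity, viability was read by BacTiter-Glo luminescence.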
Cruzain Triton = cruzain (T. cruzi) inhibition with detergent; Potency, µM, inactives show max response, negative = inhibition, usual class: inhibitors; 0.43% of 200,000 active; AID 1478; purified cruzain, Z-FR-AMC fluorescence, 0.01% Triton; P25779;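 further: plate controls were neutral wells for no effect and buffer without enzyme for full effect; nearly all actives have a fitted effect of over 40% in size; top concentration of the series not given in the record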
Target sequence (P25779 123-467 limits assumed): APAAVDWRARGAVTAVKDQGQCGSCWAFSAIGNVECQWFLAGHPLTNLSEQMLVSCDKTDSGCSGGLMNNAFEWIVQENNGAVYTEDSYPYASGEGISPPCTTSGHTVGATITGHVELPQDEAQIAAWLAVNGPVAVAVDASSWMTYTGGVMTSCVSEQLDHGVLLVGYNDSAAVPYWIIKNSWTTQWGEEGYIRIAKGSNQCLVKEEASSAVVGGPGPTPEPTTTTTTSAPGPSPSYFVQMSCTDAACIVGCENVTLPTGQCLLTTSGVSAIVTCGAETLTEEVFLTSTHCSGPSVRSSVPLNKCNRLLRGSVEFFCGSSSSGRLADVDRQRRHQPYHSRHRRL
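Cruzain (1.5 nM) preincubated 15 min at RT with compound in 100 mM sodium acetate pH 5.5, 5 mM DTT, 0.01% Triton X-100. Reaction started with 2 uM Z-FR-AMC; AMC fluorescence (ex 360/em 450 nm) change over 60 s gave rate.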
Cruzain noTriton = cruzain (T. cruzi) inhibition without detergent; P25779; purified cruzain, Z-FR-AMC fluorescence, no detergent; Potency, µM, without a hit: max response, negative = inhibition, hits mostly inhibitors; 2.3% of 200,000 active;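 further: plate controls were enzyme without inhibitor for no effect and buffer without enzyme for full effect; nearly all actives have a fitted effect of over 40% in size; top concentration of the series not given in the record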
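Detergent-free condition (0.00005% Triton X-100) in acetate buffer pH 5.5 with DTT. 1.5 nM enzyme and compound were pre-mixed 15 min, then 2 uM Z-FR-AMC substrate added; reaction progress from fluorescence change between first and third reads (60 s).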
StopGo reporter = lowers the luciferase signal of an FMDV 2A StopGo reporter; human cells with a luciferase reporter of 2A StopGo recoding; control for the full effect not named in the record; Potency, µM (top dose mostly 57.9 µM), without a hit: at the highest dose signal change, negative = less light; 1.2% of 410,000 active; active = well fitted falling curve with a large enough effect; inconclusive = small, poorly fitted or top-dose-only effect; inactive = no such curve, though single readings can be large or run the other way; tested in HEK293T cells; further: on the % scale 0 is the no-effect control and ±100 the full control effect; nearly all actives have a fitted effect of over 45% in size; luciferase light after 4 h
MARV entry inh = blocks Marburg virus binding to or entry into cells; Marburg virus pseudotyped entry inhibition, cell reporter; control for the full effect not named in the record; about a third of the inactives were read at about 46 µM; Potency, µM (doses to about 37.8 µM), inactives show at the highest dose activity change, negative = inhibition, usual class: inhibitors; 1.8% of 300,000 active; active = well fitted inhibition curve with a large enough effect; inconclusive = small, poorly fitted or top-dose-only effect, or effect the other way; inactive = flat fitted curve, though single readings scatter; tested in HEK293 cells; about a fifth of its hits are not listed in these tables; further: on the % scale 0 is the no-effect control and ±100 the full control effect; luciferase read-out
SARS PLP yeast = blocks SARS-CoV papain-like protease in a yeast assay; Potency, µM (highest dose often 32.9 µM), without a hit: at the top dose activity, positive = growth rescue; 0.19% of 330,000 active; AID 485353; S. cerevisiae expressing SARS-CoV PLpro, growth rescue; control for the full effect not named in the record; active means well fitted rising curve with a large enough effect; inconclusive means small, poorly fitted or top-dose-only effect; inactive means no such curve, though single readings can be large or run the other way; further: 0% is about no effect; nearly all actives have a fitted effect of over 55% in size; growth read by luminescence after 48 h
LASV entry inh = blocks Lassa virus binding to or entry into cells; 1.2% of 300,000 active; Potency, µM (doses to about 37.9 µM), without a hit: at the top dose activity change, negative = inhibition, actives largely listed as inhibitors; AID 540256; Lassa virus pseudotype entry inhibition, cell reporter; control for the full effect not named in the record; active means well fitted inhibition curve with a large enough effect; inconclusive means small, poorly fitted or top-dose-only effect, or effect the other way; inactive means flat fitted curve, though single readings scatter; tested in HEK293 cells; further: on the % scale 0 is the no-effect control and ±100 the full control effect; nearly all actives have a fitted effect of over 50% in size; luciferase read-out
NS1 function inh = blocks influenza NS1 protein function | Potency, µM (series often up to 46.1 µM), without a hit: top-dose activity, positive = more growth | S. cerevisiae slowed by influenza A NS1, growth recovery by OD600 | 0.4% of 270,000 active | AID 2326; active means well fitted rising curve with a large enough effect; inconclusive means small, poorly fitted or top-dose-only effect; inactive means no such curve, though single readings can be large or run the other way; further: nearly all actives have a fitted effect of over 50% in size
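OD600 was taken as the measure of yeast growth restored by compound in an NS1-expressing S. cerevisiae strain. Cells had been washed out of glucose medium and diluted 1:100 into galactose -URA medium, pH 6.0.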
* = called active by the depositor; ? = inconclusive; / = no result given; & = joins results of further samples; [ ] = remark or other dose. Unless noted, the call rests on the fitted dose curve; in most records, active means well fitted curve in the direction sought with a large enough effect; inconclusive means small, poorly fitted or top-dose-only effect, or another doubt; inactive means no such curve, though single readings can be large; an effect the other way counts as inactive or inconclusive. Potency means the concentration at half of the fitted maximal effect.

The line under a structure holds: StopGo reporter | LASV entry inh | SARS PLP yeast | RE007 growth inh | MARV entry inh | Cruzain Triton | NS1 function inh | Cruzain noTriton
- N[C@H](C(=O)O)c1cc(=O)[nH]o1
    -14% | / | / | / | ? | -0.8% | / | -1%
- Cc1ccc(CN(C)S(=O)(=O)c2c(C)noc2/C=C/N(C)C)cc1
    -7% | ? | -13% | 12% | ? | / | 4% | /
- CCOC(=O)C1=C(C)N=c2s/c(=C\c3ccc(OCC(=O)O)cc3)c(=O)n2C1c1ccccc1 (stereo unspecified)
    ? | 8% | 5% | 1% | -11% | / | 17% | /
- NC(=O)COc1c(F)cc(SCCNS(=O)(=O)c2ccccc2)cc1F
    / | ? | / | / | -24%&-24%&-24%&7%&-24% | 7.3% | -16% | 7%
- Cn1nc(C(F)(F)F)c(/C=N/OC(=O)c2ccccc2Cl)c1SCc1ccc(Cl)cc1
    -23% | ? | -6% | 8% | ? | -1.0% | 9% | -22%
- COc1cccc(NC(=O)CCSc2ccc(C)cc2)c1
    -3% | -1% | -30% | 17% | 7% | -0.2% | -8% | -10%
- O=C(NC1CCCCC1)N1CCN(C2CCCCC2)CC1
    25% | 2% | -3% | 9% | ? | 5.4% | 8% | 0%
- CN(c1ccccc1C(=O)Nc1ccc2c(c1)OCO2)S(C)(=O)=O
    21% | 65%[14.3 µM] | -1% | 6% | 8% | 1.0% | 13% | -7%
- Nc1nc2n(n1)C(c1ccco1)CC(c1ccc(Cl)cc1)N2 (stereo unspecified)
    -9% | -5% | 1% | 19% | -5%[46.1 µM] | 6.9% | 1% | 14%
- O=C(NCC(=O)N1CCN(S(=O)(=O)c2c(F)cccc2F)CC1)c1ccccc1F
    8% | 3% | 1% | 7% | 3% | / | / | /
- CC1CN(C(=O)c2ccccc2C(=O)c2ncc[nH]2)CC(C)O1 (stereo unspecified)
    / | 5% | 6% | -26% | 14% | 0.3% | -1% | -2%
- CCCOC(=O)c1ccc(NC(=O)c2cccc(S(=O)(=O)N3CCN(C(C)=O)CC3)c2)cc1
    -29% | ? | 0% | 4% | ? | / | 4% | /
- COC(=O)[C@H](C)NC(=O)NC1CCCc2ccccc21 (stereo partly specified)
    -20% | -3% | -4% | -7% | -2% | -3.1% | -155% | -7%
- Cc1cc(SCC(=O)c2ccccc2)nc(SCC(=O)c2ccccc2)n1
    -58% | -32% | -5% | 2% | -19% | -2.8% | 9% | 9%
- CC1CCC(NC(=O)c2ccc3c(c2)OCO3)CC1 (stereo unspecified)
    -25% | 3.5µM* | 1% | -8% | ? | / | -30% | /
- COC(CNC(=O)C1CCCN(S(=O)(=O)c2ccc3c(c2)oc(=O)n3C)C1)OC (stereo unspecified)
    -12% | / | 3% | -2% | / | / | -8% | /
- COc1ccc(-c2ccc(=O)n(CC(=O)NC3CCc4ccccc43)n2)cc1OC (stereo unspecified)
    -3% | / | 1% | -9% | / | / | 11% | /
- CCc1cccc(CC)c1NC(=O)CCCSc1nc2ccccc2s1
    ? | -14% | 2% | 1% | -2% | -3.4% | -5% | 20%
- CCc1ccc2nc(NC(=O)c3ccc(N4C(=O)CCC4=O)cc3)sc2c1
    30% | ? | 0% | -9% | 9%[46.1 µM] | / | 7% | /
- Clc1ccc(C(c2ccccc2)N2CCN(c3ccccn3)CC2)cc1 (stereo unspecified)
    ? | -21% | -2% | -27% | -12% | / | -5% | /
- CCOC(=O)N1CCN(C(=O)Cn2nc(C)c3sc4ccccc4c3c2=O)CC1
    -9% | -16% | -3% | 8% | 2% | 1.4% | -2% | 15%
- Cc1cccc2c1cnn2C(=O)CCC(=O)NCc1ccc(F)cc1
    -18% | / | ? | -4% | / | / | -4% | /
- COc1ccccc1NC(=O)C1CCN(C(=O)c2ccco2)CC1
    -1% | -14% | -1% | 0% | 18%[46.1 µM] | / | 6% | /
- O=C1c2ccccc2C(=O)N1OCc1ccccc1
    2% | 14% | 2% | 1% | ? | 3.4% | ? | ?
- COC(=O)c1scc(-c2ccc(C)cc2)c1S(=O)(=O)N1CCN(c2ccc(C(C)=O)cc2)CC1
    -2% | -12%[46.1 µM] | / | / | / | -4.7% | / | -16%
- O=c1oc2ccccc2cc1-c1ccccc1
    69%[activator] | / | -1% | -26% | / | / | -8% | /
- CNC(=O)c1cnc(-c2ccccc2)nc1-c1ccccc1
    1% | 15% | 1% | 0% | -8% | / | -7% | /
- Nc1nnc(SCC(=O)Nc2ccc(F)c(Cl)c2)n1-c1ccccc1
    -6% | 4% | 8% | -12% | 20% | -8.0% | -3% | 0%
- Cc1ccc(C)c(Cn2nc(-c3cc(C)ccc3C)ccc2=O)c1
    ? | ? | -11% | 1% | ? | -8.2% | -8% | 19%
- Cc1nonc1OCCNCc1c(C(=O)N(C)C)nc2ccc(Cl)cn12
    -10% | 0% | -5% | 0% | ? | / | -52% | /
- CSc1nnc(CCCCCCCCc2nnc(SC)o2)o1
    -12% | / | -1% | 11% | / | / | 3% | /
- CC(C)CN(CC(C)C)CC(O)Cn1cc(/C=C/C(=O)c2ccccc2)c2ccccc21 (stereo unspecified)
    -14% | ? | / | / | 2%[46.1 µM] | -2.2% | / | 1%
- O=C(CC1N=C2c3ccccc3N=C(SCC(=O)Nc3ccccc3F)N2C1=O)NCc1ccc2c(c1)OCO2 (stereo unspecified)
    6% | -17%[46.1 µM] | / | / | -3%[46.1 µM] | -7.0% | / | -28%
- O=[N+]([O-])c1ccc(C(=Nc2cccc3ccccc23)N2CCOCC2)cc1
    -19% | -7% | 0% | -4% | ? | -2.1% | 16% | -3%
- C#CCOCCOCCOCCNc1nc(N2CCN(C(=O)[C@H]([C@@H](C)CC)n3cc([C@@H](N)CO)nn3)CC2)nc(N2CCN(C(=O)[C@H](Cc3ccc(O)cc3)n3cc([C@@H](N)C(C)CC)nn3)CC2)n1 (stereo partly specified)
    -3% | / | 0% | 3% | / | / | 3% | /
- Cc1ccc(S(=O)(=O)Nc2ccc(Cl)cc2)cc1NC(=O)Cn1cnc2c1c(=O)n(C)c(=O)n2C
    20% | ? | -1% | -15% | -18% | -3.7% | -1% | 28%
- CCC(=O)N1CCN(c2ccc(OC)cc2[N+](=O)[O-])CC1
    0% | -1% | 3% | -1% | 11% | 2.4% | 5% | 2%
- CCOCCOC(=O)c1[nH]c2c(c1C)C(=O)CC(c1ccc(N(C)C)cc1)C2 (stereo unspecified)
    ? | / | -3% | 13% | / | -2.2% | -12% | 10%
- COc1ccc(OCC(O)CN2CCCCC2)cc1 (stereo unspecified)
    -21% | / | 2% | -2% | / | 1.9% | 1% | -12%
- CCN(CC)c1ccc(NC(=O)C2CCN(S(=O)(=O)c3cnc[nH]3)CC2)c(C)c1
    0% | -14%[46.1 µM] | / | / | 2%[46.1 µM] | -0.6% | / | -13%
- O=C(NCC(=O)N(Cc1ccco1)C(C(=O)NC1CCCCC1)c1cccnc1)c1ccco1 (stereo unspecified)
    -8% | -2% | 0% | -5% | 1%&16% | -3.5% | -2% | -2%
- Cc1ccc(N2C(=O)C(CC(=O)Nc3ccccc3)N(CCC3=CCCCC3)C2=O)cc1 (stereo unspecified)
    55%[activator] | 2%[46.1 µM] | / | / | ? | 0.2% | / | 11%
- O=C(Nc1ccccc1N1CCN(c2ccccc2)CC1)c1ccccc1F
    ? | -4% | 0% | -24% | -1%[46.1 µM] | / | 1% | /
- CCN(CC)c1ccc2c(C)cc(=O)oc2c1
    -8% | / | -6% | -14% | / | -5.1% | / | -9%
- COc1cc(C2c3sc(=O)[nH]c3SC3C4CCC(C4)C23)ccc1O (stereo unspecified)
    1% | -4% | 1% | 15% | 2% | -9.5% | -11% | -8%
- CCc1ccc(CN(Cc2ccco2)C(=O)c2ccc(C)cc2)cc1
    -8% | ? | / | / | -15%[46.1 µM] | -7.6% | / | -17%
- Clc1cccc(-c2cc3nc4c(c(N5CCNCC5)n3n2)CCCC4)c1
    / | / | 23% | / | / | -5.0% | 4% | 25µM*
- Nc1ccc(S(=O)(=O)Nc2ccc(C(=O)c3ccccc3)cc2)cc1
    17% | / | 10% | -16% | / | / | 19% | /
- CCN1CCN(C(=O)C2CCCN(S(=O)(=O)c3cc(Cl)ccc3Cl)C2)CC1 (stereo unspecified)
    ? | -11% | 29% | -27% | ? | / | 15% | /
- Cn1cnc2cc(NC(=O)c3cccs3)ccc21
    17% | -23%[46.1 µM] | -1% | -6% | ? | / | -3% | /
- CN(C)Cc1nnnn1-c1cccc(-n2nnnc2CN(C)C)c1
    -14% | 17% | -1% | -12% | 17%[46.1 µM] | / | -3% | /
- Cn1c(COc2ccccc2C(C)(C)C)nc2ccccc21
    0% | ? | / | / | 10%[46.1 µM] | -4.7% | / | -4%
- COc1ccc(NC(=O)CCn2c(=O)c3cccn3c3cccnc32)cc1Cl
    -7% | 14%[46.1 µM] | / | / | / | 1.3% | / | -9%
- Cc1ccc(NC(=O)CCSCCc2ccccn2)cc1
    -9%&-11% | -18%&12%[46.1 µM] | -4% | -14% | 24%&24%[46.1 µM] | 1.3% | / | -8%
- CCCCCCC(=O)N/N=C/c1ccc(Br)cc1
    17% | ? | -54% | 9% | 4% | -9.5% | -6% | -4%
- COc1ccc(N2CCN(C(=O)c3ccc(CNS(=O)(=O)c4cccc(OC)c4)cc3)CC2)cc1
    -26% | ? | -8% | 14% | -19%[46.1 µM] | / | 19% | /
- CCn1c(=O)c(C(=O)CN2c3ccccc3CC2C)c(N)n(Cc2ccccc2)c1=O (stereo unspecified)
    -28% | ? | 1% | -4% | ? | -8.9% | ? | -9%
- Cc1ccc(-c2nnc(SCC(=O)N/N=C/c3ccccc3C(=O)O)n2-c2ccc(Cl)cc2)cc1
    -21% | / | -3% | -14% | / | / | 7% | /
- COc1c(C)cc(NS(=O)(=O)c2ccc3c(c2)OCCO3)cc1C
    -4% | -30%[46.1 µM] | / | / | -8%[46.1 µM] | -5.5% | / | -8%
- O=C(Nc1cccc(F)c1)c1ccccc1
    35%[activator] | 9% | -22% | -13% | 0% | 2.2% | -116% | 0%
- Cc1nc2ccc([N+](=O)[O-])cc2c(=O)n1Cc1cccc(Br)c1
    -31% | 12%[46.1 µM] | 0% | 10% | ? | / | 13% | /

Rows are unselected; 4.7% or so of the library scored in one or more.
